High-throughput results: PubChem, ICCB-Longwood Screening Facility, Harvard Medical School
Mtb MbtI inh = inhibitors of Mycobacterium tuberculosis siderophore enzyme MbtI. P9WFX0. purified MbtI enzyme, fluorescence intensity read-out. inhibition, %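 (about 17 µg/mL by stock and volumes)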. actives 0.89% (n = 100,000). AID 493033;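 active means above 50% in both replicates, above 80% if mildly self-fluorescent; inactive means the rest, strongly fluorescent compounds included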;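 further: 0% = mean of negative and 100% = mean of positive controls; one replicate is shown; some compounds called inactive have numbers as strong as hits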
Target sequence (P9WFX0 whole entry, looked up): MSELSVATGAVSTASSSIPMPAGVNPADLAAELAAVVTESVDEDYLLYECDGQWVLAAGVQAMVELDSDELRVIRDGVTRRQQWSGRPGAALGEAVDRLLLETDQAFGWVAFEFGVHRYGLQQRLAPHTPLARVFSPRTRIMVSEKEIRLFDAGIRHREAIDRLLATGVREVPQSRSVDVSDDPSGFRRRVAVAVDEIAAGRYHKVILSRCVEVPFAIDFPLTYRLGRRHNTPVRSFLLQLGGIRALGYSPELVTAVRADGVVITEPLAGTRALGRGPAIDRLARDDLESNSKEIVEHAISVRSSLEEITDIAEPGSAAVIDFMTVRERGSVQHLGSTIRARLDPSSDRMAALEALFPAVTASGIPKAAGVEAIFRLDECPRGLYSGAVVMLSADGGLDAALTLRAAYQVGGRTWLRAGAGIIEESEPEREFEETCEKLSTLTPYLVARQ
PV pol inh = inhibitors of poliovirus RNA polymerase binding and polymerization. poliovirus polymerase elongation, fluorescence polarization; hits give low values. AID 588519. % elongation, % (compound at 16.7 µg/mL). P03300. actives 0.66% (n = 150,000); in the data active means % elongation below about 90%; further: some results filed as inactive read as strong as hits
Target sequence (P03300 1749-2209 limits assumed): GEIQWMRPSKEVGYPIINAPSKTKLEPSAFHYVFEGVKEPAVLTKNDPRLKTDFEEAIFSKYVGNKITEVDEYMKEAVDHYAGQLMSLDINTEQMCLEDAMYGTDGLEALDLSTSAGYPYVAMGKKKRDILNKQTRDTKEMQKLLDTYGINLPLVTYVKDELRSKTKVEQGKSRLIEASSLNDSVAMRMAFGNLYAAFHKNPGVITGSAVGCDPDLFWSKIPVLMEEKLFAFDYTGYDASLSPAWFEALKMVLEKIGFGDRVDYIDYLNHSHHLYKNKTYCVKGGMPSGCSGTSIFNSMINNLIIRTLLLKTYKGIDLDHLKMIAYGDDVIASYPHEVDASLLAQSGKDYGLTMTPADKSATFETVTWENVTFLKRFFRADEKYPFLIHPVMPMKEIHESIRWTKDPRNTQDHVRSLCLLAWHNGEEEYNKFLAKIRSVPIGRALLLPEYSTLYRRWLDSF
MenB inh = Mtb MenB enzyme inhibition; P9WNP5; MenB enzyme assay, absorbance read-out; some hits fall short of the stated cut; inhibition, %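 (about 12 µg/mL by stock and volumes)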; actives 0.43% (n = 100,000); AID 540299;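 active means mean of two replicates above 30%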;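 further: 0% = no compound and 100% = wells with inactive enzyme; the first replicate is given; strong numbers were not always called active; inactives centre near -10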
PV pol inh intensity = second read-out of PV pol inh, no call of its own (marks repeat the call); % elongation; measured here: total intensity read-out; formula for this scale not given here;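 total fluorescence in place of polarization; lower means less elongation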
An asterisk follows results filed as active; i = inactive; · = no result given. Outcome played no part in choosing rows; about 1.9% have a hit in one of these screens.

Molecule,Mtb MbtI inh,PV pol inh,PV pol inh intensity,MenB inh
Cc1ccc(C)c(S(=O)(=O)n2ccnc2)c1,·,105,109,-4
COc1ccc(Cl)cc1NC(=S)NCCn1cc(Br)cn1,6,102,103,-2
Cc1oc(C(C)(C)C)cc1C(=O)/C(C#N)=C/Nc1ccccc1,5,98,101,-15
N/C(=N\c1nc2c(c(=O)[nH]1)CCCC2)Nc1ccccc1,0,101,94,-18
O=C(O)/C=C\C(=O)N1CCc2ccccc21,3,101,103,-9
CC1(C)CC2CC(C)(CN2C(=O)CCCN2C(=O)c3ccccc3C2=O)C1 (stereo not given),-9,103,103,-35
O=C(Nc1ccc(SC(F)F)cc1)C12CCC(CC1)C2,-1,101,101,10
O=C(N/N=C/c1ccc(N2CCOCC2)cc1)C1CC1,143,101,109,16
CN(C/C=C/c1ccc(N(C)C)cc1)CCc1ccccn1,-156,100,102,-5
CCN(CC(=O)Nc1ccc(S(=O)(=O)N2CCCC2)cc1)CC(=O)Nc1cccc(OC)c1,14,89*,88*,-16
Cc1ccc(=O)n(S(=O)(=O)c2ccc(F)cc2F)n1,-8,102,103,-11
Cn1c(CO)nc2cc(N=Cc3ccc(O)cc3O)ccc21,21,102,102,-123
O=C(COC(=O)c1cccs1)c1ccc2c(c1)OCCO2,-5,104,107,-15
Cc1ccc(C(C)C)c(OCCCCN(C)C)c1,-3,93,96,-4
O=C(c1sc2ccccc2c1Cl)N1CCC2(CC1)OCCO2,0,99,101,-28
COc1ccccc1NC(=O)Cc1noc(COC(=O)c2ccc(Br)o2)n1,-15,102,98,-16
O=C(CCCC(=O)N1CCc2ccccc21)N1CCc2ccccc21,-2,100,113,-21
CCOC(=O)c1cc(-c2ccc(C)cc2)n(CCC(=O)N2CCN(c3ccccn3)CC2)c1C,-11,101,103,-10
O=C(O)c1coc2ccccc12,14,101,100,16
CNC(=O)c1c(C)[nH]c(=S)c(C#N)c1-c1ccco1,99*,103,100,-26
COCCCn1c(C)nnc1SCC#N,-7,100,103,-25
CC1CCN(S(=O)(=O)c2cc(Br)cnc2N)CC1,-6,105,97,-15
CN1CCN(NC(=O)COc2cccc(C(F)(F)F)c2)CC1,-3,100,101,-5
O=C(CCc1nnc2n(CCc3ccccc3)c(=O)c3ccccc3n12)NCc1ccco1,4,102,103,3
NS(=O)(=O)c1ccc(CNC(=O)CC23CC4CC(CC(Br)(C4)C2)C3)cc1,4,98,90,·
Cc1onc(-c2ccccc2Cl)c1-c1nc2ccccc2c(=O)o1,-3,99,105,-7
O=C(Nc1ccc(-c2nc3ccccc3c(=O)[nH]2)cc1)C1CCCCC1,-14,102,104,-22
CC(=O)N1CCN(C(=O)COc2ccc(Br)cc2)CC1,-9,101,96,·
CS(=O)(=O)NCCSc1nnnn1-c1ccccc1,-6,101,102,-12
O=S(=O)(NCC1COc2ccccc2O1)c1ccc(S(=O)(=O)c2ccccc2)s1 (stereo not given),3,101,105,11
CC(C)c1ccc(NC(=O)C(NS(=O)(=O)c2cccc3nsnc23)C(C)C)cc1 (stereo not given),-4,106,106,-18
COc1ccc(NC(=O)CCC2CCCCC2)c(OC)c1,-16,99,105,-12

A draw from above in order of molar mass, smallest number first:
Molecule,Mtb MbtI inh,PV pol inh,PV pol inh intensity,MenB inh
O=C(O)c1coc2ccccc12,14,101,100,16
O=C(O)/C=C\C(=O)N1CCc2ccccc21,3,101,103,-9
Cc1ccc(C)c(S(=O)(=O)n2ccnc2)c1,·,105,109,-4
Cc1ccc(C(C)C)c(OCCCCN(C)C)c1,-3,93,96,-4
O=C(N/N=C/c1ccc(N2CCOCC2)cc1)C1CC1,143,101,109,16
Cc1ccc(=O)n(S(=O)(=O)c2ccc(F)cc2F)n1,-8,102,103,-11
COc1ccc(NC(=O)CCC2CCCCC2)c(OC)c1,-16,99,105,-12
Cn1c(CO)nc2cc(N=Cc3ccc(O)cc3O)ccc21,21,102,102,-123
CS(=O)(=O)NCCSc1nnnn1-c1ccccc1,-6,101,102,-12
O=C(COC(=O)c1cccs1)c1ccc2c(c1)OCCO2,-5,104,107,-15
CN1CCN(NC(=O)COc2cccc(C(F)(F)F)c2)CC1,-3,100,101,-5
CC1CCN(S(=O)(=O)c2cc(Br)cnc2N)CC1,-6,105,97,-15
O=C(c1sc2ccccc2c1Cl)N1CCC2(CC1)OCCO2,0,99,101,-28
Cc1onc(-c2ccccc2Cl)c1-c1nc2ccccc2c(=O)o1,-3,99,105,-7
CC(=O)N1CCN(C(=O)COc2ccc(Br)cc2)CC1,-9,101,96,·
CC1(C)CC2CC(C)(CN2C(=O)CCCN2C(=O)c3ccccc3C2=O)C1 (stereo not given),-9,103,103,-35
COc1ccccc1NC(=O)Cc1noc(COC(=O)c2ccc(Br)o2)n1,-15,102,98,-16
NS(=O)(=O)c1ccc(CNC(=O)CC23CC4CC(CC(Br)(C4)C2)C3)cc1,4,98,90,·
CCN(CC(=O)Nc1ccc(S(=O)(=O)N2CCCC2)cc1)CC(=O)Nc1cccc(OC)c1,14,89*,88*,-16

(continued)
Molecule,Mtb MbtI inh,PV pol inh,PV pol inh intensity,MenB inh
Cc1cc(NC(=O)CSc2cn(CC(=O)N3CCC(C)CC3)c3ccccc23)no1,-18,102,101,-24
CCn1nc(C(=O)OCC(=O)c2c[nH]c3ccccc23)c2ccccc2c1=O,-3,105,119,-28
O=C(NCCc1ccc(F)cc1)c1ccc(S(=O)(=O)N2CCCCC2)cc1,-6,101,101,·
Cc1ccc(SCC(=O)Nc2ccccc2)cc1,-8,102,105,-3
CCCN(S(=O)(=O)c1ccc(OCC)cc1)S(=O)(=O)c1cccs1,-2,112,110,16
CNS(=O)(=O)c1ccc(NC(=O)c2cc3ccccc3oc2=O)cc1,-10,101,104,-26
CCOC(=O)c1cnc2cc(Cl)c(OC)cc2c1N1CCN(c2cccc(Cl)c2)CC1,-2,104,101,-11
COc1cc(-n2c(=O)c3ccccc3n(CC(=O)NCc3ccc(C)cc3)c2=O)cc(OC)c1OC,6,99,103,3
O=c1[nH]c2ccc(NS(=O)(=O)c3ccc(C4CCCCC4)cc3)cc2[nH]1,-4,100,105,-2
Cn1cc(S(=O)(=O)NCc2ccc3c(c2)OCO3)c(C(F)(F)F)n1,-4,109,108,-3
O=C(O)CCCC(=O)Nc1nccs1,·,104,105,-10
O=C(c1ccc2[nH]c(=O)oc2c1)c1ccc2[nH]c(=O)oc2c1,·,104,108,-1
CCCC1O[C@@H]2C[C@H]3[C@@H]4CCC5=CC(=O)C=C[C@]5(C)[C@H]4[C@@H](O)C[C@]3(C)[C@]2(C(=O)CO)O1 (stereo not given in full),-16,99,103,1
Cc1ccccc1C(=O)NC(=S)NC1CCSC1=O (stereo not given),-9,100,103,-12
CC(C)CN(Cc1c(O)ccc2c1oc(=O)c1ccccc12)CC(C)C,14,99,95,-7
COC(=O)c1c(N)n(Cc2ccco2)c2nc3ccccc3nc12,96,99,108,-17
O=C(NCc1ccco1)C(c1ccco1)N(C(=O)Cn1nnc2ccccc21)c1ccccc1 (stereo not given),-2,102,101,-59
COc1ccc(CNCC(C)NCc2ccc(OC)c(OC)c2)cc1OC (stereo not given),3,101,97,-6
CCOc1nc2c(ncn2C)c(=O)n1C,0,103,99,8
Cc1cccc(Oc2ccc(Cl)cc2N)c1,-4,102,99,-17
O=C(/C=C/N1CCOCC1)C(F)(F)F,23,106,102,-1
CN(C)c1ccc(P(=O)(N(C)C)N(C)C)cc1,9,101,97,-54
FC(F)(F)c1ccc2c(Cl)ccnc2c1,·,111,106,-12
Cc1nn(-c2cc(C(F)(F)F)ccc2Cl)c(=O)c2noc(C)c12,-6,101,107,-14
O=C(CSc1nc2ccccc2s1)c1cc2ccccc2o1,-12,103,107,-14
O=C(CN1C2=NCCCN2c2ccccc21)c1ccc(Br)s1,-2,101,106,-6
O=C(Nc1sc2c(c1C(=O)NCCc1ccccc1)CCC2)c1ccco1,23,·,·,-11
CN1CCC(N)=NC1=O,2,101,97,15
Cn1cccc1Cc1nnc(SCC(=O)Nc2ccccc2F)n1CCc1ccccc1,-3,99,103,-1
Cc1ccc(S(=O)(=O)Nc2ccc(F)cc2)cc1C(=O)N(C)CCO,3,103,102,-26
CSc1nc(N)nc2sc(C(=O)c3ccc(Cl)cc3)c(N)c12,-18,104,107,-11
CCCn1c(N)cc(=O)n(CCC)c1=O,-5,104,106,-65
c1ccc(C2CN(Cc3ccco3)C(c3ccccc3)O2)cc1 (stereo not given),-13,103,105,·
O=C(O)c1ccccc1C(=O)Nc1cccnc1,-3,99,103,-7
CC(=O)NCC(=O)OCc1ccc(COC(=O)CNC(C)=O)cc1,-3,100,108,9
O=C(CC1Nc2ccccc2NC1=O)Nc1ccccc1C(F)(F)F (stereo not given),-4,100,102,12
CCC(O)(CCN1CCCCC1)c1ccccc1 (stereo not given),-19,103,103,-7
CSc1nc2ccc(I)cc2c(=O)n1C,2,98,101,0
COc1cc(OC)c(NC(=O)c2sc3ncnc(N4CCCCC4C)c3c2C)cc1Cl (stereo not given),-8,101,103,-18
CCc1ccc(NC(=O)CSC2=Nc3ccccc3C3=NC(C(C)C)C(=O)N23)cc1 (stereo not given),-30,103,107,-4
COc1ccc(C)cc1-n1nnnc1SCC(=O)N1CCC(C(=O)Nc2nccs2)CC1,-6,107,109,-9
CCOc1ccccc1Oc1c(C)oc2cc(O)ccc2c1=O,109,101,101,-13
CCCn1c(=N)c(C(=O)OC)cc2c(=O)n3ccccc3nc21,i,102,97,-172
N#CCCn1cc(/C=C2\NC(=S)NC2=O)c(-c2ccc3c(c2)OCO3)n1,2,113,120,2
O=C(/C=C/c1cccs1)OCc1nc2ccc(Cl)cc2n1CCO,-4,113,120,-34
O=c1c2cnn(CCO)c2ncn1Cc1ccc(C(F)(F)F)cc1,-4,100,98,-3
Cc1cccc(-c2n[nH]c(S(C)(=O)=O)c2C#N)c1,-24,101,108,-3
Cc1cccn2cc(CNc3nc4ccccc4s3)nc12,·,91,99,-4
CCNS(=O)(=O)c1cc(S(C)(=O)=O)ccc1Cl,-2,100,103,-28
Cc1nn(C(=O)CNC(=O)c2ccccc2)c(C)c1C,-24,99,100,4
CC1(C)CC2CC(C)(CN2C(=O)COC(=O)C2CCN(c3ccc(C(F)(F)F)cn3)CC2)C1 (stereo not given),31,106,108,-51
CCOC1(NC(=O)c2ccccc2)C(C)=CC(=O)C=C1C,-5,102,99,-8
O=C(Nc1nc(-c2ccco2)c(-c2ccco2)s1)OCc1ccccc1,29,137,143,-36
CC(C(=O)c1ccccc1)n1cnc2ccccc2c1=O (stereo not given),-1,101,102,2
O=C(CCSc1nc(-c2ccco2)cc(C(F)(F)F)n1)NC1CC1,-17,103,101,-6
CCn1c(C2CC(=O)N(CCc3ccccc3)C2)nc2ccccc21 (stereo not given),-5,102,104,-22

(continued)
Molecule,Mtb MbtI inh,PV pol inh,PV pol inh intensity,MenB inh
O=C(C1COc2cc(S(=O)(=O)N3CCOCC3)ccc2O1)N1CCOCC1 (stereo not given),6,101,97,-28
Cc1onc(-c2c(F)cccc2Cl)c1C(=O)OCC(=O)NC1CC1,10,102,103,-5
Cn1c(SCCn2c(=S)n(C)c3ccccc32)nc2ccccc21,-6,100,104,0
C=CCN=C1CCCc2c1[nH]c1ccc(C)cc21,29,103,105,-19
